RE007 growth inh – less growth of the S. pombe RE007 Vpr strain. Potency, µM (highest dose often 92.2 µM), without a hit: top-dose activity change, negative = less growth. 360,000 compounds, 0.21% hits. S. pombe RE007 Vpr strain, BacTiter-Glo ATP luminescence, 24 h; control for the full effect not named in the record. AID 651644; active = well fitted falling curve with a large enough effect; inconclusive = small, poorly fitted or top-dose-only effect; inactive = no such curve, though single readings can be large or run the other way;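 also: % is scaled to controls: 0 for no effect and ±100 for the full control effect; nearly all actives have a fitted effect of over 50% in size; the assay follows cell death caused by Vpr and the record does not say whether a fall means rescue or toxicity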
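Fission yeast RE007 carrying one integrated HIV-1 vpr copy, seeded at OD 0.01 in PMG+AL medium with 23 nL pinned compound. Grown 24 h at 30 degrees; viability read by BacTiter-Glo luminescence after 5 min.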
Cruzain Triton – inhibitors of Trypanosoma cruzi cruzain with detergent; P25779; purified cruzain, Z-FR-AMC fluorescence, 0.01% Triton; Potency, µM, for the others: max response, negative = inhibition, usual class: inhibitors; 200,000 compounds, 0.43% hits; active = well fitted curve in the direction sought with a large enough effect; inconclusive = small, poorly fitted or top-dose-only effect, or another doubt; inactive = no such curve, though single readings can be large; an effect the other way counts as inactive or inconclusive;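 also: plate controls were neutral wells for no effect and buffer without enzyme for full effect; nearly all actives have a fitted effect of over 40% in size; top concentration of the series not given in the record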
Target sequence (P25779 123-467 limits assumed): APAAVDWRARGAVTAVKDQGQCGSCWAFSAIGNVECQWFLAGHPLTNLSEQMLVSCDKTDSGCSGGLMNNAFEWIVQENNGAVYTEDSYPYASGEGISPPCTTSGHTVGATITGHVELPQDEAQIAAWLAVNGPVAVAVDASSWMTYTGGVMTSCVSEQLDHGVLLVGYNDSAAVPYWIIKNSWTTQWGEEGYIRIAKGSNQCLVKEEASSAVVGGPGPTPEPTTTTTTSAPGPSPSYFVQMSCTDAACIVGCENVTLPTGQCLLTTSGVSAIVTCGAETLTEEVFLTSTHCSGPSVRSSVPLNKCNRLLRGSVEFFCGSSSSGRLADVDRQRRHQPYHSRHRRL
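In this qHTS format, compounds are incubated with 1.5 nM cruzain for 15 min at room temperature before 2 uM Z-FR-AMC is added. Release of AMC is followed at 360/450 nm, and progress is taken as the 60 s fluorescence difference.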
SARS PLP yeast – blocks SARS-CoV papain-like protease in a yeast assay. S. cerevisiae expressing SARS-CoV PLpro, growth rescue; control for the full effect not named in the record. Potency, µM (titrated, usually from 32.9 µM), inactives show top-dose activity, positive = growth rescue. 330,000 compounds, 0.19% hits. AID 485353; also: 0% is about no effect; nearly all actives have a fitted effect of over 55% in size; growth read by luminescence after 48 h
MARV entry inh – inhibitors of Marburg virus binding or cell entry; Marburg virus pseudotyped entry inhibition, cell reporter; control for the full effect not named in the record; about a third of the inactives were read at about 46 µM; Potency, µM (series often up to 37.8 µM), for inactives: at the highest dose activity change, negative = inhibition, usual class: inhibitors; 300,000 compounds, 1.8% hits; AID 540276; active = well fitted inhibition curve with a large enough effect; inconclusive = small, poorly fitted or top-dose-only effect, or effect the other way; inactive = flat fitted curve, though single readings scatter; tested in HEK293 cells; about a fifth of its hits are not listed in these tables; also: % is scaled to controls: 0 for no effect and ±100 for the full control effect; luciferase read-out
2A StopGo – FMDV 2A StopGo reporter, luciferase signal; human cells with a luciferase reporter of 2A StopGo recoding; control for the full effect not named in the record; Potency, µM (series often up to 57.9 µM), for inactives: at the top dose signal change, negative = less light; 410,000 compounds, 1.2% hits; AID 1159524; active = well fitted falling curve with a large enough effect; inconclusive = small, poorly fitted or top-dose-only effect; inactive = no such curve, though single readings can be large or run the other way; tested in HEK293T cells; also: % is scaled to controls: 0 for no effect and ±100 for the full control effect; nearly all actives have a fitted effect of over 45% in size; luciferase light after 4 h
LASV entry inh – inhibitors of Lassa virus binding or cell entry; 300,000 compounds, 1.2% hits; Lassa virus pseudotype entry inhibition, cell reporter; control for the full effect not named in the record; Potency, µM (series often up to 37.9 µM), inactives show top-dose activity change, negative = inhibition, actives largely listed as inhibitors; active means well fitted inhibition curve with a large enough effect; inconclusive means small, poorly fitted or top-dose-only effect, or effect the other way; inactive means flat fitted curve, though single readings scatter; tested in HEK293 cells; also: % is scaled to controls: 0 for no effect and ±100 for the full control effect; nearly all actives have a fitted effect of over 50% in size; luciferase read-out
NS1 inh – influenza NS1 inhibition | Potency, µM (top dose mostly 46.1 µM), without a hit: top-dose activity, positive = more growth | S. cerevisiae slowed by influenza A NS1, growth recovery by OD600 | 270,000 compounds, 0.4% hits | AID 2326; also: actives are rising curves; nearly all actives have a fitted effect of over 50% in size
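Growth recovery, yeast-based: influenza A NS1 expressed in S. cerevisiae causes slow growth, and suppressors are detected by OD600. The parent strain without NS1 is used as positive control.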
Cruzain inh noDet – cruzain (T. cruzi) inhibition without detergent; P25779; purified cruzain, Z-FR-AMC fluorescence, no detergent; Potency, µM, for the others: max response, negative = inhibition, hits mostly inhibitors; 200,000 compounds, 2.3% hits; active = well fitted curve in the direction sought with a large enough effect; inconclusive = small, poorly fitted or top-dose-only effect, or another doubt; inactive = no such curve, though single readings can be large; an effect the other way counts as inactive or inconclusive;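 also: plate controls were enzyme without inhibitor for no effect and buffer without enzyme for full effect; nearly all actives have a fitted effect of over 40% in size; top concentration of the series not given in the record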
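Purified cruzain at 1.5 nM, pre-incubated 15 min with compound at room temperature in 100 mM sodium acetate pH 5.5, 5 mM DTT, 0.00005% Triton X-100. Reaction started with 2 uM Z-FR-AMC; AMC fluorescence increase over 60 s gives rate.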
Starred values were filed as active, the others as inactive; ? = inconclusive; / = not tested or not shown; & = joins results of further samples; [ ] = another dose, or the depositor's remark. Unless noted, calls follow the shape of the dose curve; as a rule, active means well fitted rising curve with a large enough effect; inconclusive means small, poorly fitted or top-dose-only effect; inactive means no such curve, though single readings can be large or run the other way. Potency is read from the fitted curve at half-maximal effect. Random draw from the library. About 4.7% of those tested had a hit in this group.

SMILES | RE007 growth inh | Cruzain Triton | SARS PLP yeast | MARV entry inh | 2A StopGo | LASV entry inh | NS1 inh | Cruzain inh noDet
Cc1cc(N)n(-c2cc(C)c3ccccc3n2)n1 | -29% | / | -2% | ? | -1% | ? | / | /
O=C(CCCNS(=O)(=O)c1cccc2nsnc12)NCc1ccc(Cl)cc1 | 5% | 2.3% | 3% | -12% | -4% | 1% | -7% | -11%
O=C(Nc1ccc(Cl)cc1)Nc1cccnc1 | 2% | -17% | -7% | 3% | / | 22% | -49% | -4%
Cc1ccc(NC(=O)c2cc3c(s2)CCCC3)cc1 | ? | / | -6% | 15%[46.1 µM] | 16% | ? | / | /
C/C(=N\Nc1nc(Cl)c(Cl)cc1Cl)c1ccc(S(=O)(=O)NCc2ccco2)cc1 | 10% | -5.8% | -19% | ? | -34% | ? | -16% | 2%
CC(C)CCN1CCN(C2CSCCSC2)CC1CCO (configuration not stated) | 4% | / | -1% | / | -10% | / | 1% | /
COc1ccccc1NC(=O)CNc1ccc(F)c(Cl)c1 | -23% | -5.7% | -3% | -5% | -4% | 4% | -14% | -13%
COCC1CCN(Cc2cn(-c3ccccc3F)nc2-c2cc(C)sc2C)CC1 | -4% | / | 1% | ? | -18% | -23% | -1% | /
O=C(CNC(=O)c1ccc(S(=O)(=O)N2CCCC2)cc1)N/N=C/c1ccc(Cl)cc1 | -9% | -1.9% | -7% | -14% | -1% | -5% | 6% | -7%
CCCCCc1ccc(OCCC[n+]2ccccc2)c(CCCCC)c1 | -21% | / | -4% | 7.1µM* | 18µM* | ? | -38% | /
O=C(O)c1ccc(-c2sc(Nc3ccccc3)n[n+]2-c2ccc(F)cc2)cc1 | 0% | / | -2% | / | -13% | / | -6% | /
Cc1ccc2cc(CN(CCCO)S(=O)(=O)c3ccccc3F)c(=O)[nH]c2c1C | -8% | / | -10% | ? | -20% | -2% | -10% | /
CC12CCC(=O)N1C(C(=O)Nc1cc(C(F)(F)F)ccc1N1CCOCC1)CS2 (configuration not stated) | 13% | / | 0% | -6% | -13% | 0% | / | /
N#Cc1ccccc1NC(=O)CSc1nccn1CCc1ccccc1 | -1% | -1.7% | 1% | 6% | 40%[activator] | 2% | -14% | -18%
O=C1C(c2ccccc2)NC(=S)N1C1CCCCC1 (configuration not stated) | -9% | / | 3% | / | -11% | / | 20% | /
O=C(CCCn1ncn2c(cc3occc32)c1=O)NCc1cccc(Cl)c1 | -9% | / | 1% | / | -5% | / | -16% | /
CCOc1cc(N2CCOCC2)c(OCC)cc1NC(=O)COC(=O)CCn1c(C)csc1=O | -14% | / | 4% | 21% | -21% | -2%[46.1 µM] | / | /
COC(=O)C(/C=N/O)NC(=O)c1ccccc1 (configuration not stated) | -15% | / | 2% | -8%[46.1 µM] | 58%[activator] | -3% | / | /
CCOc1ccc(NC(=O)CSc2ncc(-c3ccc(F)cc3)n2Cc2ccco2)cc1 | 1% | / | -2% | / | -15% | / | -2% | /
COc1ccc(S(=O)(=O)N2CCOC2CNC(=O)C(=O)NCCc2c[nH]c3ccccc23)cc1C (configuration not stated) | 1% | -1.6% | -3% | ? | ? | ? | 14µM* | ?
CN(C)S(=O)(=O)c1ccc(N2CCCC2)c(C(=O)NCc2ccccc2)c1 | 3% | -7.7% | 4% | -17% | -19% | 1% | -10% | 5%
O=C(NNC(=S)NCc1ccco1)c1ccccc1Br | 16% | / | 9% | / | 4% | / | 6% | /
COCCCNC(=S)Nc1ccc2nc3n(c(=O)c2c1)CCCCC3 | -14% | / | -2% | -4%[46.1 µM] | -27% | -18%[46.1 µM] | / | /
CCOC(=O)c1c(NC(C)=O)c2c3c(sc2n1Cc1ccc(Cl)cc1)CCCC3 | / | -0.5% | / | 24%[46.1 µM] | -4% | / | / | -4%
CC(=O)C1=C(O)C(=O)N(c2ccc(S(N)(=O)=O)cc2)C1c1ccc([N+](=O)[O-])cc1 (configuration not stated) | 87% | -1.8% | 0% | 13% | -18% | -9% | -4% | -19%
O=C(NC1CCCC1)c1ccccc1-c1ccccc1 | 6% | 0.2% | 7% | -13% | -12% | 10% | -11% | 5%
COc1ccc(CNC(=O)CN(c2ccccc2)S(=O)(=O)c2ccccc2[N+](=O)[O-])cc1 | 1% | / | 1% | -14%[46.1 µM] | -2% | ? | 2% | /
CN(CC(=O)O)S(=O)(=O)c1ccc2c(c1)n(C)c(=O)c(=O)n2C | 30% | / | 4% | -13%[46.1 µM] | 1% | 3% | / | /
CC1(C)OC(=O)C(=CNc2ccccn2)C(=O)O1 | -1% | / | 1% | -18%[46.1 µM] | 4% | 10% | 2% | /
CCC(C)NCCC(=O)Nc1ccc(Cl)c(S(=O)(=O)Nc2ccc(Cl)cc2)c1 (configuration not stated) | 2% | / | -1% | 11µM* | 19% | 7% | / | /
Cc1ccc(NC(=O)C2CCN(S(=O)(=O)c3cccs3)CC2)cc1 | 8% | -4.7% | 0% | ? | -19%&20% | ? | / | -1%
O=C(C(Cl)c1ccccc1)N1CCOCC1 (configuration not stated) | 42% | / | -2% | -10% | -10% | 1% | -1% | /
CCOC(=O)C1=C(C)NC2=C(C(=O)c3ccccc32)C1c1ccc([N+](=O)[O-])o1 (configuration not stated) | 12% | / | 0% | ? | ? | -23% | 0% | /
COc1cc(OC)c(NC(=O)c2c3c(nc4ccccc24)C(=O)N(C2CCCCC2)C3)cc1Cl | / | -2.7% | / | / | -15% | 24%[46.1 µM] | / | 7%
CC1(C)Cc2c(sc(NC(=O)COc3ccccc3)c2C#N)C(C)(C)N1 | 8% | / | 1% | 1% | -9% | -9% | 3% | /
O=C(NCc1cccc(F)c1)c1ccc(CS(=O)c2ccccc2Cl)o1 (configuration not stated) | / | -19% | / | / | -14% | -5%[46.1 µM] | / | -10%
CCOC(=O)c1c(C)[nH]c(C)c1S(=O)(=O)N1CCCC(C(=O)Nc2cc(C)ccc2C)C1 (configuration not stated) | / | 1.0% | / | / | -6% | 1%[46.1 µM] | / | 13%
CCn1c(SCC(=O)c2ccccc2)nnc1-c1cccnc1 | -3% | / | 0% | 9%[46.1 µM] | 0% | 7% | 2% | /
CC(C)c1ccc(N2C(=O)NC(=O)/C(=C\c3cnc(-c4ccccc4)nc3)C2=O)cc1 | -7% | -4.0% | 10% | 41% | -11% | 23% | -4% | ?
Cc1ccc(Nc2sc(C(=O)c3ccccc3)c(N)c2C(=O)NC(C)C)cc1 | / | -2.9% | / | / | -10% | 6%[46.1 µM] | / | 9%
CCOC(=O)/C=C/C(=O)Nc1ccc(S(=O)(=O)Nc2cc(C)on2)cc1 | -10% | / | -3% | 23%[46.1 µM] | 10% | 29%[46.1 µM] | 3% | /
O=C(CCN1CCOCC1)c1ccc2c(c1)OCCO2 | 13µM* | -23% | -115% | 4% | -3% | -15% | -31% | -14%
Cc1cccc(NC(=O)CSc2nc(=O)n(Cc3cccnc3)c3c2CCC3)c1 | / | -4.2% | / | / | 1% | 12%[46.1 µM] | / | 21%
O=c1[nH]c2cc3c(cc2cc1CN(Cc1cccnc1)C(=S)NCc1ccco1)OCO3 | -14% | / | 0% | ? | -12% | 4% | 0% | /
C/C(=N\NC(=O)c1cccc(Br)c1)c1cccnc1 | 1% | / | 0% | 27%[46.1 µM] | -6% | ? | -7% | /
COc1cc(/C=N/NC(=O)CCN2CCN(C(c3ccccc3)c3ccccc3)CC2)ccc1O | -3% | -2.2% | 5% | ? | -17% | -21%[46.1 µM] | -2% | -13%
COc1cc(C(=O)Nc2ccncc2)c([N+](=O)[O-])cc1OC | 1% | / | 0% | ? | -7% | 7%[46.1 µM] | 1% | /
O=C1CCc2cc(NS(=O)(=O)c3ccc(F)cc3)cc3c2N1CCC3 | 1% | / | -1% | / | 16% | -19% | / | /
N#C/C(=C\N1CCN(Cc2ccc3c(c2)OCO3)CC1)c1nc2ccccc2s1 | 8% | -3.9% | -6% | -11% | -28% | -5% | -11% | 32µM*
CC(=O)N/N=C\c1ccccc1OC/C=C/c1ccccc1 | -11% | / | 0% | ? | 23% | -8% | 10% | /

Carrying on:
SMILES | RE007 growth inh | Cruzain Triton | SARS PLP yeast | MARV entry inh | 2A StopGo | LASV entry inh | NS1 inh | Cruzain inh noDet
CCOc1cc(Br)c(CC(=O)O)cc1OCC | -4% | / | -1% | / | -12% | / | -3% | /
COc1ccc(N2CCN(C(=O)c3cc(=O)[nH]c4ccccc34)CC2)cc1 | 9% | / | 3% | 2%[46.1 µM] | 7% | -27% | / | /
S=C(NCc1ccco1)Nc1cc(Cl)c(Cl)cc1Cl | -4% | -7.3% | 17% | -18% | 0% | -17% | -20% | 1%
Cc1cc2cc(CNC(=O)Cc3cccs3)ccc2n1C | 1% | / | 0% | / | -6% | / | 2% | /
O=C(NN1C(=O)C2C3CCC(O3)C2C1=O)c1ccc(Br)o1 (configuration not stated) | -6% | 0.0% | 8% | 5% | -1% | 4% | 0% | -2%
CC1=NNC(=O)/C1=C\c1cn(-c2ccccc2)nc1-c1ccccc1 | -2% | / | -5% | 4µM* | 8.9µM* | ? | -8% | /
CCSc1nnc(-c2ccncc2)o1 | 8% | 2.9% | 3% | 14% | 19% | 3% | 2% | -8%
O=C(NC(=S)NNC(=O)c1ccccc1O)c1cccs1 | -5% | / | 8% | ? | 5% | ? | -40% | /
Cc1cc(/C=C2\C(=O)NC(=O)N(Cc3ccccc3)C2=O)c(C)n1C1CC1 | -6% | / | 1% | 0%[46.1 µM] | -3% | 8% | 8% | /
C/C(CC(C)(C)C1CCCCC1)=N\NC(N)=S | -30% | -22% | -37% | ? | / | 16µM* | -192% | -25%

Assay outcomes as filed in PubChem.
